Bioassay records: PubChem, several laboratories
Env fusion inh = inhibitors of HIV Env-mediated cell fusion; HeLa-JRFL Env/CEM21 cell fusion, luciferase; inhibition, % at 12.3 µM; 360,000 tested, 1.1% active; AID 651610;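 active = mean replicate inhibition score of at least 50 and every replicate individually at or above 50; inconclusive = only one of the two criteria met; inactive = mean below 50 and not all replicates reaching 50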;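 also: 0% = plate neutral controls and 100% = maraviroc near 300 nM; one replicate is shown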
CSC inhib = blocks cancer stem cells; cancer stem cell-like cells viability, luminescence; inhibition, % at 7.5 µM; 300,000 tested, 1.1% active; AID 2717;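 active = mean at 75% or more and at least half the replicates too; inconclusive = mean and replicates disagree; tested in HMLE shEcad cells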;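 also: 0% = median of negative and 100% = median of positive control wells; the first replicate is given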
PABP polyA inh = PABP-poly(A) binding inhibition; inhibition, % at 35 µM; 290,000 tested, 1% active; P11940; PABP-poly(A) RNA binding, fluorescence polarization;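 active = 50% or more with normal probe brightness, or confirmed in later tests; inconclusive = above 50% with abnormal brightness, or retests that disagree; inactive = below 50% or failed in later tests; about a fifth of its hits are not listed in these tables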;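 also: calls also rest on retests at 20 µM and on dose response follow-up; controls were probe without protein and protein plus probe with vehicle; some compounds called inactive have numbers as strong as hits; many hits fall short of the cut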
Target sequence (P11940 whole entry, looked up): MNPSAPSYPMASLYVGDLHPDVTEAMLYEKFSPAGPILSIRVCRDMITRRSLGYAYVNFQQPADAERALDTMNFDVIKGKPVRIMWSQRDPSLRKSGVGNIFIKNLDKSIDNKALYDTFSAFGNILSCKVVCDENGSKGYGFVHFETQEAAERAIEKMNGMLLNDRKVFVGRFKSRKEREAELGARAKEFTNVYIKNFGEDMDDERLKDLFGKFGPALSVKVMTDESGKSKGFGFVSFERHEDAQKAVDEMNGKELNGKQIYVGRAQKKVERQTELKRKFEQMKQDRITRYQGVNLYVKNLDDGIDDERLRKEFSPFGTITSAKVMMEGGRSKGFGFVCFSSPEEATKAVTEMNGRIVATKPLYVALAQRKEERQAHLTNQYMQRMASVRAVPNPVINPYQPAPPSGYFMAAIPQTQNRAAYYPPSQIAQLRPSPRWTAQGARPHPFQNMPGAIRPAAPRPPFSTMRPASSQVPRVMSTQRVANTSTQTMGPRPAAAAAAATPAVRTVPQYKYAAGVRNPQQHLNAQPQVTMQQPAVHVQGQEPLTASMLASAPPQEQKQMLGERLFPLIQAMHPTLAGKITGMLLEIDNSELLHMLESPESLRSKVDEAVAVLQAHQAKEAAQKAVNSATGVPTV
MT1-MMP act inh = inhibitors of human MT1-MMP activation | P50281 | HT1080 RFP-PRO-GFP cells, GFP/RFP ratio fluorescence, overnight; percent of plate control window, DMSO zero | GFP/RFP ratio change, % at 20 µM | 360,000 tested, 0.061% active | AID 651647;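 active = GFP/RFP ratio change of at least 30% with cell ATP level not reduced by more than half and red fluorescence within 50% of control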; also: strong numbers were not always called active
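Material: RFP-PRO-GFP reporter HT1080 cells. Dosing: single-point 20 µM compound, 1% DMSO. Controls: DMSO and RFP-L50D-GFP cell wells. Timing: cells overnight before dosing, compound overnight, 37 °C, 5% CO2. Measure: GFP/RFP fluorescence ratio.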
Yeast UUG start = yeast start codon fidelity modulation; S. cerevisiae UUG-firefly luciferase reporter, luminescence/redox ratio; activity score, % at 18.7 µM; 350,000 tested, 0.13% active; AID 602363;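 active = replicate mean at a twofold rise or more, about +100% in these data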;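 also: firefly luciferase made from a UUG start codon reports start codon fidelity; reporter light over untreated wells divided by growth signal over untreated wells; some hits fall short of that in this replicate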
Rce1 inhib = inhibitors of yeast Ras-converting enzyme | Q03530 | yeast membranes, quenched prenylated peptide cleavage fluorescence | calls only | 290,000 tested, 0.27% active;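 active = fall in fluorescence gain of 50% or more versus controls, with final raw signal at or below 3038400; inconclusive = same 50% fall but final raw signal above 3038400; inactive = fall in fluorescence gain under 50%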;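 also: plate controls were neutral control wells for no effect and wells lacking membranes for full effect; tested at 10 µM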
Target sequence (Q03530 whole entry, looked up): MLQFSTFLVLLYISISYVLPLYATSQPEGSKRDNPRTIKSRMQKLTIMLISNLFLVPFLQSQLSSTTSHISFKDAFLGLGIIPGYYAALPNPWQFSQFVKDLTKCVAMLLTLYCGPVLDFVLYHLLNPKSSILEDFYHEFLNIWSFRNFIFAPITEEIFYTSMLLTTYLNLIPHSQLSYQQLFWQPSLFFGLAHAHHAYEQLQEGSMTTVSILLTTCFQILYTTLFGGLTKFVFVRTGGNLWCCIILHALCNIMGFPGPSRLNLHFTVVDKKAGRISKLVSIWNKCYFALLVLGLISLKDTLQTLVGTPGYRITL
eIF4H FP inh = inhibitors of RNA binding by human eIF4H; Q15056; inhibition, % at 35 µM; AID 2012; eIF4H fluorescence polarization binding assay; 290,000 tested, 0.94% active;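 active = 50% or more with normal probe brightness, or confirmed in later tests; inconclusive = above 50% with abnormal brightness, or retests that disagree; inactive = below 50% or failed in later tests; about a fifth of its hits are not listed in these tables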;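 also: calls also rest on retests at 20 µM and on dose response follow-up; 0% = protein and probe with vehicle and 100% = probe without protein; strong numbers were not always called active; many hits fall short of the cut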
eIF4H FP inh retest = further read-out of eIF4H FP inh, marked with its call; inhibition, %; compound at 20 µM; confirmation average;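 mean of two retest wells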
PABP polyA inh retest = recorded beside PABP polyA inh, whose call it bears; inhibition, %; compound at 20 µM; confirmation repeats;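 mean of two retest wells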
MT1-MMP act inh RFP = also measured in MT1-MMP act inh; calls as there; RFP signal change, %; measured here: RFP expression control read;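 0 = vehicle wells; hits needed this value within 50% of zero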
* hit, by the source's call; i = inactive; u = inconclusive; x = not tested or not shown; + = active, no number. These rows are one share of the data (hit frequency here may not be typical).

SMILES	Env fusion inh	CSC inhib	PABP polyA inh	MT1-MMP act inh	MT1-MMP act inh RFP	Yeast UUG start	Rce1 inhib	eIF4H FP inh	others
COC(=O)C1Sc2[nH]c(=O)sc2C2c3ccccc3OC(=O)C12 (stereo not given)	-20	-15	0	-43	2	-19	i	4
Cn1nccc1C(=O)N1CCN(c2cccc(C(F)(F)F)c2)CC1	1	0	0	5	3	0	i	-3
Cc1nccn1CC(O)COc1ccc(Cl)cc1Cl (stereo not given)	8	49	-7	3	-1	-13	x	-8
CC1=CC(=O)C(C(C)C)=C/C1=N\OC(=O)c1cccc2nc(C)oc12	x	7	2	-13	9	-13	i	8
C=CCc1cccc2cc(C(=O)N3CCN(C(=O)c4ccccc4)CC3)c(=O)oc12	-5	x	-2	5	7	-15	i	12
COc1ccc(/C=N/NC(=O)c2cc(O)c(O)c(O)c2)cc1Cn1cc([N+](=O)[O-])cn1	11	x	0	6	5	x	i	85	eIF4H FP inh retest=5;PABP polyA inh retest=2
O=c1c(-c2cccc3ccccc23)[n+]([O-])c2ccccc2n1O	17	-4	u	0	10	-8	i	u
CN(C)CCCN(C(=O)c1ccc(S(=O)(=O)N(C)C2CCCCC2)cc1)c1nc2ccc(F)cc2s1	-6	-10	-1	3	4	-6	i	-23
CCN1CCN(C(=O)c2nn(-c3ccccc3)c(=O)c3ccccc23)CC1	x	-4	4	4	-3	-21	i	5
COc1ccc(-c2ccc(=O)n(Cc3ccccc3)n2)cc1	-8	-9	12	1	-8	1	i	5
O=C(COC(=O)c1ccccc1Oc1ccccc1)NC1CCS(=O)(=O)C1 (stereo not given)	x	-2	-2	-2	3	-14	i	-11
COc1ccccc1-c1nc(S(=O)(=O)c2ccc(Cl)cc2)c(N(C)C)o1	-29	x	15	1	2	-5	i	2
Cc1cc(-c2n[nH]c(=S)n2Cc2ccco2)nn1C	-4	8	4	4	3	-23	i	3
Cc1cc(C)cc(N(C(=O)C2CCCC2)C2C=CS(=O)(=O)C2)c1 (stereo not given)	-37	12	-6	-3	4	-8	i	-6
Cc1ccc(C)c(S(=O)(=O)Nc2cc(SCC(=O)O)c(O)c3ccccc23)c1	x	20	-8	-28	-4	x	x	-4
CCCCCCSc1nnc(N)s1	-10	14	1	5	3	-8	i	2
O=C(CN(C1CCCCC1)S(=O)(=O)c1ccccc1)N1CCCC1	x	x	12	6	1	8	i	3
CCCn1c(SCC(=O)NC)nnc1C(C)C	x	-12	-8	5	7	-6	i	14
CCOc1nc(-c2ccccc2O)nc2ccccc12	x	18	-2	-1	-1	x	i	-2
C/C(=N/NC(=O)c1ccc(Cn2cccn2)o1)c1cccc(NC(=O)c2ccncc2)c1	14	x	-2	-4	1	-13	i	-9
Cc1nn2c(-c3ccc(F)cc3)ccnc2c1Cl	16	10	-10	-10	-2	-6	i	-4
COc1ccc(CNC(=O)Cc2ccc(NC(=O)C3=C(C)OCCS3)cc2)cc1	-39	-9	8	-2	-11	-14	i	40
CN1CCN(S(=O)(=O)c2ccc(NC(=S)NC(=O)C3CCCC3)cc2)CC1	0	4	6	3	-3	-11	i	2
Cc1cccc(Nc2nc(N)nc(CN3CCN(C)CC3)n2)c1	-34	-5	43	4	7	-17	i	-4
O=C1CCN(Cc2ccccc2)C=C1c1ccc2ccccc2c1	-43	x	x	5	2	-3	x	x
COc1ccc(F)cc1-c1cc(C(=O)NCc2cc(C(F)(F)F)cc(C(F)(F)F)c2)[nH]n1	9	x	x	-2	-7	-4	x	x
NC1CCN(c2c(F)cc3c(=O)c(C(=O)O)cn(C4CC4)c3c2Cl)C1 (stereo not given)	1	11	1	-3	-4	-6	i	0
CCC(C(=O)NC1CCCC1)N(C(=O)Cn1nnc(-c2ccc(C)o2)n1)c1cccc(OC)c1 (stereo not given)	-7	-2	3	4	2	-5	i	-10
CCOc1cc2[nH]c(=O)n(CCC(=O)NCCc3ccccc3)c(=O)c2cc1OCC	-50	-1	-8	1	4	-20	x	-3
CC1(C)Cc2c(sc(NC(=O)Cc3ccccc3)c2C#N)C(C)(C)N1	i	x	x	-1	6	-2	x	x
N#Cc1c(N)n(CCNC(=O)c2cccs2)c2nc3ccccc3nc12	x	-13	0	-5	-6	-13	i	0
CO/N=C/c1ccc(N2CCCC2)c([N+](=O)[O-])c1	-81	1	4	5	-13	x	i	6
Cc1ccc(-c2c(C(=O)N/N=C/c3cccs3)nnn2-c2nonc2N)cc1	x	-8	-2	2	5	-17	i	11
CC1CCN(C(=O)c2ccc(CNS(=O)(=O)c3ccc(C(C)(C)C)cc3)cc2)CC1	8	16	x	3	-5	-13	x	x
O=C(NC(Cc1ccccc1)C(=O)N1CCCCC1)c1ccccc1 (stereo not given)	x	x	x	2	4	-22	i	x
O=C(Nc1ccccc1Cl)OCc1cncs1	-14	-9	-1	-2	-1	-13	i	-5
COc1ccc(-c2cc(C(=O)NNC(=S)NC(=O)c3c(-c4ccccc4)noc3C)[nH]n2)cc1	69*	23	-2	-10	-7	x	i	4
Cc1ccc(S(=O)(=O)N(C)c2ccc(OCC(=O)OCc3c(C)noc3C)cc2)cc1	-44	32	-1	8	-2	-9	i	-4
COCCN(CC(=O)Nc1ccccc1C(F)(F)F)C(=O)/C=C/c1cc(Cl)c2c(c1)OCO2	-5	x	x	4	-7	-11	x	x
O=C(Nc1ccccc1)c1nc[nH]c1C(=O)N1CCc2ccccc2C1	-32	11	x	3	-3	-4	x	x
CC(=O)Nc1ccc(NC(=O)CCC(=O)Oc2ccc(C)cc2)cc1	-1	-9	12	4	5	11	i	14
COc1cc([C@@H]2c3cc4c(cc3[C@@H](O)[C@H]3COC(=O)[C@H]23)OCO4)cc(OC)c1O[Si](C)(C)C(C)(C)C	32	127*	6	-1	-10	6	i	7
CC(C)(C)OC(=O)N[C@@H](Cc1c[nH]c2ccccc12)c1nnc(SCC(N)=O)o1	-69	-7	-5	3	7	-16	i	-12
Cc1ccc(-n2nc3c(c2NC(=O)c2cccs2)CSC3)cc1	-29	3	-4	-2	0	-4	i	0
COc1ccc(/C=N/NC(=O)c2ccoc2C)cc1O	-353	-4	9	4	5	x	i	5
CC(C)CC(=O)Nc1ccc(C(=O)Nc2cccc(O)c2)cc1	-22	-8	0	2	0	x	i	-21
CC1CCN(S(=O)(=O)c2ccc(N=NC3=C(O)CC(C)(C)CC3=O)cc2)CC1	15	-14	6	-1	5	-16	i	3
Cc1ccc(N2C(=O)N(CC(=O)Nc3ccc(C)c(C)c3)C(=O)C2C)cc1 (stereo not given)	2	-9	x	2	-2	x	i	x
CC(=O)Nc1ccc(NC(=O)c2ccc(COc3ccc4c(C)cc(=O)oc4c3)cc2)cc1	x	2	-1	x	x	x	i	13
CC(C)(Oc1cccc2ccccc12)C(=O)O	-1	-5	10	1	4	-18	i	-1
CC(C)C[C@H]1CNC(=S)N1CC1CCCN1C[C@H](CC(C)C)N1C[C@H](Cc2ccc(O)cc2)N(CC2CCCCCC2)C1=S (stereo not given in full)	-17	x	x	4	-14	-24	x	x
O=S(=O)(c1ccccc1)c1cnn2c(C(F)(F)F)cc(-c3ccc(F)cc3)nc12	-43	8	1	1	0	-18	+	0
Cc1cc(OCC(=O)NC2CCCCC2)ccc1Cl	-19	-4	8	-1	0	x	i	1
CC1CN(C(=O)COC(=O)COc2ccc(C#N)cc2)CC(C)O1 (stereo not given)	7	-1	x	4	5	-18	i	x
O=C(OCC(=O)N1CCCC1)c1ccc(Cl)c([N+](=O)[O-])c1	-4	-7	4	1	1	-3	i	-2
COc1cc(OC)c(S(=O)(=O)Nc2ccc(C)cn2)cc1NC(C)=O	-32	-11	-2	2	-2	-22	i	-5
Cc1c(C(=O)NCc2ccc(F)cc2)sc(=O)n1Cc1ccc(Cl)c(Cl)c1	20	x	x	3	-11	-22	x	x
Cc1cc(C)c2oc(=O)cc(CN3CCCCC3)c2c1	7	-6	5	1	2	0	i	1
CC1CCN(S(=O)(=O)N2CCCC(C(=O)NCc3ccccc3Cl)C2)CC1 (stereo not given)	15	-4	2	-2	-2	-16	i	-6
CCOC(=O)C1=C(C)N(CCCC(=O)O)C(=O)NC1c1ccc([N+](=O)[O-])cc1 (stereo not given)	-10	-5	3	4	3	-9	i	4
More structures follow:
SMILES	Env fusion inh	CSC inhib	PABP polyA inh	MT1-MMP act inh	MT1-MMP act inh RFP	Yeast UUG start	Rce1 inhib	eIF4H FP inh	others
CN(CC(=O)Nc1cccc(F)c1)C(=O)c1ccc(S(=O)(=O)N2CCCC2)cc1	8	x	x	-1	1	-1	x	x
Oc1cccc(Nc2nc(-c3ccccc3Cl)nc3ccccc23)c1	20	30	0	1	-3	0	i	-4
CCn1c2ccccc2c2cc(/C=N/NC(=O)c3ccc(O)cc3)ccc21	x	6	-5	8	-6	x	+	0
CCN(CC)CC(C(=O)N(CC)CC)P(=O)(c1ccccc1)c1ccccc1 (stereo not given)	x	3	9	1	-1	-10	i	3
Cc1ccc(OCCCC(=O)NNC(=O)c2ccncc2)cc1	-12	-10	x	x	x	1	i	x
NC(=O)c1c(NC(=O)Cn2cnc([N+](=O)[O-])n2)sc2c1CCCC2	7	x	16	-5	-3	-20	i	5
O=S(=O)(c1ccc(Br)cc1)n1ccc2ccccc21	-37	4	6	0	-3	-5	x	-5
O=C(NCCOc1ccc2ccccc2c1)c1cncc(Br)c1	5	29	20	-2	1	-12	i	13
Cc1ccc(C)c(NC(=O)CCC(=O)N2CCOc3ccccc32)c1	-5	-14	1	-3	2	-8	i	-2
O=S(=O)(c1ccc(Cl)cc1)N1CCN2CCCC2C1 (stereo not given)	16	-5	0	-2	-4	-14	i	10
COc1ccc(C(=O)Nc2c(C)cc(C)cc2C)cc1OC	-5	x	4	4	2	-15	i	-3
O=C(/C=C/c1ccccc1)NC(=S)Nc1ccc2c3c(cccc13)CC2	18	8	-10	0	6	x	i	2
Cc1nnc2sc(SCC(=O)Nc3ccc(Cl)cc3)nn2c1=O	2	3	19	-2	0	1	i	-8
c1ccc(CCCCN2CCN=C2Nc2ccccc2)cc1	-36	-1	x	4	4	-8	x	x
CC(C)CCNC(=O)COc1ccc(C(=O)c2ccccc2)cc1	12	3	52	1	-12	x	i	-7	eIF4H FP inh retest=21;PABP polyA inh retest=28
CCOC(=O)C(=O)N(Nc1ccccc1C)c1ccccc1C	-5	-3	3	1	2	x	i	-16
COc1cc(/C=N/Nc2ccc(Cl)nn2)cc(OC)c1O	-28	5	17	4	5	-8	i	5
O=C(C[n+]1ccc(/C=C/c2ccccc2)cc1)c1ccc2c(c1)OCCO2	10	-5	-14	-6	-6	-5	i	-2
CSc1ccccc1NC(=O)c1ccc(C)o1	-88	-4	-1	-1	0	-1	i	8
CC(C)[C@H]1C=C(C(=O)O)O[C@@H](OCc2ccc(CO)cc2)C1	-14	-2	9	-3	3	-13	i	2
CC(=O)N/C(=C/c1ccc(OS(=O)(=O)c2ccc(C)cc2)cc1)C(=O)NCCO	-27	x	-1	-7	5	x	i	7
